High-throughput results as filed in PubChem BioAssay.
HIV Env fusion = inhibitors of HIV Env-mediated cell fusion; HeLa-JRFL Env/CEM21 cell fusion, luciferase; inhibition, % at 12.3 µM; hit rate 1.1% among 360,000;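 active = mean replicate inhibition score of at least 50 and every replicate individually at or above 50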;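 note: 0% = plate neutral controls and 100% = maraviroc near 300 nM; one replicate is shown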
UUG fidelity = modulators of start codon recognition fidelity in yeast | AID 602363 | S. cerevisiae UUG-firefly luciferase reporter, luminescence/redox ratio | activity score, % at 18.7 µM | hit rate 0.13% among 350,000;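 active = replicate mean at a twofold rise or more, about +100% in these data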;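 note: firefly luciferase made from a UUG start codon reports start codon fidelity; reporter light over untreated wells divided by growth signal over untreated wells; some hits fall short of that in this replicate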
An asterisk follows results filed as active; [ ] = another dose, or the depositor's remark.

Values run as follows: HIV Env fusion	UUG fidelity
O=C(C[C@H]1C[C@@H]2c3cc(NC(=O)c4ccc5c(c4)OCO5)ccc3O[C@@H]2[C@@H](CO)O1)NCc1ccc(Cl)cc1
 : 19[16.7 µM]	-3
Cc1ccc(-c2cnc3c(c2)C(=O)N([C@H](C)CO)C[C@H](C)[C@H](CN(C)CC2CCCC2)O3)cc1
 : -3[16.7 µM]	4
C[C@@H]1CN([C@H](C)CO)C(=O)c2cccc(NC(=O)c3ccc(-c4nccs4)cc3)c2O[C@@H]1CN(C)C(=O)Nc1cccc2ccccc12
 : -117[16.7 µM]	0
CO[C@@H]1CN(C)C(=O)c2ccc(NC(=O)c3ccc(F)cc3)cc2OC[C@H](C)N(C(=O)c2ccc(F)cc2)C[C@H]1C
 : 24[16.7 µM]	13
C[C@H](CO)N1C[C@H](C)[C@H](CN(C)C(=O)NC2CCCCC2)OCCCC[C@H](C)Oc2ccc(NC(=O)Cc3ccccc3)cc2C1=O
 : -48[16.7 µM]	2
C[C@@H]1CN([C@@H](C)CO)C(=O)c2cc(C#CC3CC3)cnc2O[C@@H]1CN(C)Cc1ccccc1C(=O)O
 : -1[16.7 µM]	11
C[C@H](CO)N1C[C@H](C)[C@@H](CN(C)Cc2cccc(C(=O)O)c2)Oc2ncc(C#C[C@@H](C)O)cc2C1=O
 : 4[16.7 µM]	5
C/C=C/c1cnc2c(c1)C(=O)N([C@@H](C)CO)C[C@@H](C)[C@H](CN(C)C(=O)Nc1ccc(C(F)(F)F)cc1)O2
 : 9[16.7 µM]	8
Cc1ccc(S(=O)(=O)Nc2ccc3c(c2)C(=O)N([C@@H](C)CO)C[C@H](C)[C@@H](CN(C)S(C)(=O)=O)OCCCC[C@H](C)O3)cc1
 : 3[16.7 µM]	17
Cc1noc(C)c1NC(=O)N(C)C[C@H]1Oc2c(NS(C)(=O)=O)cccc2C(=O)N([C@@H](C)CO)C[C@@H]1C
 : 6[16.7 µM]	-11
CO[C@@H]1CN(C)C(=O)c2cc(NS(=O)(=O)c3ccc(C)cc3)ccc2OC[C@@H](C)N(Cc2nccs2)C[C@H]1C
 : 3[16.7 µM]	4
COc1ccc(NC(=O)N(C)C[C@@H]2OCCCC[C@@H](C)Oc3ccc(NC(=O)Nc4cccc5ccccc45)cc3C(=O)N([C@@H](C)CO)C[C@@H]2C)cc1
 : -6[16.7 µM]	-1
C[C@@H]1CN([C@H](C)CO)C(=O)c2cc(C3=CCCCC3)cnc2O[C@@H]1CN(C)Cc1cccc(F)c1
 : 5[16.7 µM]	6
C[C@@H]1CN([C@H](C)CO)C(=O)c2cc(/C=C/c3ccccc3)cnc2O[C@H]1CN(C)C(=O)c1ccc2c(c1)OCO2
 : 3[16.7 µM]	0
CC(C)NC(=O)N(C)C[C@H]1Oc2cc(C#CC3CC3)ccc2S(=O)(=O)N([C@@H](C)CO)C[C@@H]1C
 : -17[16.7 µM]	15
C[C@@H]1CN([C@@H](C)CO)C(=O)c2cc(-c3cccc(C#N)c3)cnc2O[C@H]1CN(C)C(=O)C1CCC1
 : 8[16.7 µM]	-15
COc1ccc(S(=O)(=O)Nc2ccc3c(c2)C(=O)N([C@@H](C)CO)C[C@@H](C)[C@@H](CN(C)C(=O)Nc2ccc4c(c2)OCO4)OCCCC[C@H](C)O3)cc1
 : 16[16.7 µM]	-9
C/C=C/c1ccc2c(c1)O[C@H](CN(C)C(=O)Nc1ccc(OC)cc1)[C@H](C)CN([C@@H](C)CO)S2(=O)=O
 : -38[16.7 µM]	6
CC(C)NC(=O)N(C)C[C@@H]1Oc2ccc(N(C)C)cc2C(=O)N([C@H](C)CO)C[C@@H]1C
 : -12[16.7 µM]	-4
CCS(=O)(=O)Nc1ccc2c(c1)C(=O)N(C)C[C@H](OC)[C@@H](C)CN(C(=O)C1CCC1)[C@H](C)CO2
 : 61*[16.7 µM]	5

Of the compounds above, these have fluorine:
Values run as follows: HIV Env fusion	UUG fidelity
CO[C@@H]1CN(C)C(=O)c2ccc(NC(=O)c3ccc(F)cc3)cc2OC[C@H](C)N(C(=O)c2ccc(F)cc2)C[C@H]1C
 : 24[16.7 µM]	13
C/C=C/c1cnc2c(c1)C(=O)N([C@@H](C)CO)C[C@@H](C)[C@H](CN(C)C(=O)Nc1ccc(C(F)(F)F)cc1)O2
 : 9[16.7 µM]	8
C[C@@H]1CN([C@H](C)CO)C(=O)c2cc(C3=CCCCC3)cnc2O[C@@H]1CN(C)Cc1cccc(F)c1
 : 5[16.7 µM]	6

(next part)
Values run as follows: HIV Env fusion	UUG fidelity
C[C@H](CO)N1C[C@H](C)[C@@H](CN(C)C(=O)c2ccccc2)Oc2ncc(C#C[C@@H](C)O)cc2C1=O
 : 21[16.7 µM]	34
C/C=C/c1ccc2c(c1)O[C@@H](CN(C)Cc1cncnc1)[C@@H](C)CN([C@@H](C)CO)S2(=O)=O
 : 3[16.7 µM]	24
C[C@@H]1CN([C@@H](C)CO)C(=O)Cc2cc(NC(=O)CCCCCC(=O)Nc3ccccc3N)ccc2O[C@@H]1CN(C)S(=O)(=O)c1cn(C)cn1
 : -8[16.7 µM]	4
C[C@H](CO)N1C[C@H](C)[C@@H](CN(C)S(C)(=O)=O)Oc2ncc(C#CCN(C)C)cc2C1=O
 : -30[16.7 µM]	27
CNC(=O)C[C@@H]1CC[C@H]2[C@H](COc3ccc(NC(=O)c4cc(C)on4)cc3C(=O)N2C)O1
 : 2[16.7 µM]	5
C[C@@H]1CN([C@H](C)CO)S(=O)(=O)c2ccc(C#CC3CCCC3)cc2O[C@@H]1CN(C)CC1CC1
 : 23[16.7 µM]	49
CCCN(C)C[C@H]1OCCCC[C@@H](C)Oc2ccc(NC(=O)Nc3ccc(C(F)(F)F)cc3)cc2C(=O)N([C@@H](C)CO)C[C@H]1C
 : 4[16.7 µM]	2
CCCN(C)C[C@@H]1Oc2ncc(C#CC3CCCCC3)cc2C(=O)N([C@@H](C)CO)C[C@H]1C
 : 1[16.7 µM]	24
C[C@H](CO)N1C[C@H](C)[C@@H](CN(C)C)OCCCC[C@H](C)Oc2ccc(NC(=O)NC3CCCCC3)cc2C1=O
 : 9[16.7 µM]	0
C[C@@H]1CN([C@@H](C)CO)C(=O)Cc2cc(NS(=O)(=O)c3ccc(F)cc3)ccc2O[C@H]1CN(C)Cc1ccc(Oc2ccccc2)cc1
 : 38[16.7 µM]	8
CO[C@H]1CN(C)C(=O)c2ccc(NC(=O)C3CC3)cc2OC[C@@H](C)N(C(=O)c2cnccn2)C[C@H]1C
 : 1[16.7 µM]	13
C[C@@H]1CN([C@@H](C)CO)C(=O)c2cccc(NC(=O)c3ccc(-c4nccs4)cc3)c2O[C@@H]1CN(C)S(=O)(=O)c1cn(C)cn1
 : 11[16.7 µM]	7
O=C(C[C@H]1C[C@H]2c3cc(NC(=O)Nc4ccccc4F)ccc3O[C@H]2[C@@H](CO)O1)NCc1ccccn1
 : 9[16.7 µM]	-22
CN1C(=O)c2cc(NC(=O)C3CC3)ccc2OC[C@@H]2O[C@@H](CC(=O)NCCc3ccncc3)CC[C@H]21
 : -23[16.7 µM]	-12
C[C@H](CO)N1C[C@H](C)[C@@H](CN(C)Cc2cccnc2)Oc2ncc(-c3ccccc3)cc2C1=O
 : 7[16.7 µM]	0
C[C@H](CO)N1C[C@H](C)[C@@H](CN(C)S(=O)(=O)c2cn(C)cn2)Oc2ccc(NC(=O)NC3CCCCC3)cc2CC1=O
 : -13[16.7 µM]	-1
C[C@@H]1CN([C@@H](C)CO)C(=O)c2cc(NC(=O)Nc3cccc4ccccc34)ccc2O[C@@H](C)CCCCO[C@H]1CN(C)C(=O)Nc1cccc2ccccc12
 : 33[16.7 µM]	-4
C[C@@H]1CN([C@H](C)CO)S(=O)(=O)c2ccc(C#CC3CCCC3)cc2O[C@@H]1CN(C)Cc1cccnc1
 : 29[16.7 µM]	26
C[C@H](CO)N1C[C@H](C)[C@@H](CN(C)C(=O)c2ccc3c(c2)OCO3)Oc2cc(-c3ccncc3)ccc2S1(=O)=O
 : 7[16.7 µM]	0
C[C@@H]1CN([C@@H](C)CO)S(=O)(=O)c2ccc(Br)cc2O[C@H]1CN(C)Cc1cccnc1
 : 6[16.7 µM]	7
CCCNC(=O)N[C@H]1CC[C@H](CCNS(=O)(=O)c2cccc(F)c2)O[C@H]1CO
 : -16[16.7 µM]	-10
O=C(N[C@H]1CC[C@H](CCNC(=O)c2ccccc2F)O[C@@H]1CO)c1ccc2c(c1)OCO2
 : 4[16.7 µM]	-1
CC(C)c1cn(CC[C@@H]2CC[C@H](NS(=O)(=O)Cc3ccccc3)[C@@H](CO)O2)nn1
 : -3[16.7 µM]	-7
COCC(=O)N(C)C[C@@H]1Oc2cc(C#CC(C)C)ccc2S(=O)(=O)N([C@@H](C)CO)C[C@H]1C
 : 23[16.7 µM]	-6
C[C@@H]1CN([C@H](C)CO)C(=O)c2cc(NS(=O)(=O)c3cn(C)cn3)ccc2O[C@@H](C)CCCCO[C@@H]1CN(C)C(=O)C1CCCCC1
 : -1[16.7 µM]	12
Cc1ccc(-c2ccc3c(c2)O[C@H](CN(C)S(C)(=O)=O)[C@@H](C)CN([C@H](C)CO)S3(=O)=O)cc1
 : -2[16.7 µM]	5
Cc1noc(C)c1NC(=O)N[C@@H]1CC[C@@H](CC(=O)NCCCN(C)C)O[C@H]1CO
 : 11[16.7 µM]	-2
O=C(C[C@@H]1C[C@@H]2c3cc(NC(=O)Cc4ccncc4)ccc3O[C@@H]2[C@H](CO)O1)NCc1ccccc1
 : 2[16.7 µM]	-12
C[C@H](CO)N1C[C@H](C)[C@H](CN(C)C(=O)NC2CCCCC2)Oc2ccc(NC(=O)c3ccncc3)cc2CC1=O
 : -7[16.7 µM]	-6
C[C@@H]1CN([C@@H](C)CO)C(=O)Cc2cc(NC(=O)CCN3CCOCC3)ccc2O[C@@H]1CN(C)Cc1ccc(Oc2ccccc2)cc1
 : -1[16.7 µM]	0
C=CCOC(=O)[C@@H]1[C@H]2C(=O)O[C@H](c3ccccc3)[C@H](c3ccccc3)N2[C@H](c2ccc(OCCOC(=O)[C@H]3C[C@H]4C(=O)N5CCC[C@H]5C(=O)N4[C@H]3c3ccc(O)cc3)cc2)[C@@]12C(=O)Nc1ccccc12
 : 1[16.7 µM]	-2
CNC(=O)C[C@H]1CC[C@@H]2[C@H](COc3ccc(NC(=O)Nc4ccc(F)c(F)c4)cc3C(=O)N2C)O1
 : -9[16.7 µM]	16
Cc1noc(C)c1NC(=O)Nc1ccc2c(c1)C(=O)N([C@H](C)CO)C[C@@H](C)[C@@H](CN(C)C(=O)Nc1c(C)noc1C)OCCCC[C@@H](C)O2
 : -12[16.7 µM]	13
COCCNC(=O)C[C@H]1C[C@@H]2c3cc(N(C)C)ccc3O[C@@H]2[C@@H](CO)O1
 : -2[16.7 µM]	-15
C[C@H]1CN([C@@H](C)CO)C(=O)c2cc(N(C)C)ccc2O[C@H]1CN(C)C(=O)Nc1cccc2ccccc12
 : -5[16.7 µM]	2
C[C@H]1CN([C@@H](C)CO)C(=O)c2cccc(NC(=O)c3cnccn3)c2O[C@@H]1CN(C)Cc1ccc(Oc2ccccc2)cc1
 : 8[16.7 µM]	13
O=C(Cc1ccncc1)NCC[C@H]1CC[C@@H](NC(=O)Nc2ccc(F)cc2)[C@@H](CO)O1
 : 3[16.7 µM]	-9
CNC[C@@H]1Oc2ncc(-c3ccc(C)cc3)cc2C(=O)N([C@@H](C)CO)C[C@@H]1C
 : -4[16.7 µM]	-2
COCC#Cc1ccc2c(c1)O[C@H](CN(C)C(=O)C1CC1)[C@@H](C)CN([C@H](C)CO)S2(=O)=O
 : 0[16.7 µM]	-4
C[C@H](CO)N1C[C@H](C)[C@H](CN(C)S(=O)(=O)c2ccc(F)cc2)Oc2cc(C#Cc3ccc(F)cc3)ccc2S1(=O)=O
 : 16[16.7 µM]	-27
COc1ccc(NC(=O)N(C)C[C@H]2Oc3ncc(-c4ccc(C#N)cc4)cc3C(=O)N([C@@H](C)CO)C[C@@H]2C)cc1
 : -12[16.7 µM]	10
C[C@@H]1CN([C@@H](C)CO)C(=O)c2cccc(NC(=O)C3CCOCC3)c2O[C@@H]1CN(C)C(=O)Nc1ccc(F)cc1
 : -11[16.7 µM]	2
C[C@@H]1CCCCO[C@@H](CN(C)Cc2ccccc2)[C@@H](C)CN([C@@H](C)CO)C(=O)c2cc(NC(=O)Nc3ccc(F)cc3)ccc2O1
 : -28[16.7 µM]	17
C[C@H]1CCCCO[C@@H](CN(C)Cc2ccc(C(=O)O)cc2)[C@@H](C)CN([C@@H](C)CO)C(=O)c2cc(NC(=O)Nc3ccccc3)ccc2O1
 : 15[16.7 µM]	1
Cc1noc(C)c1S(=O)(=O)N(C)C[C@H]1Oc2c(NS(=O)(=O)c3cn(C)cn3)cccc2C(=O)N([C@H](C)CO)C[C@H]1C
 : -19[16.7 µM]	-8
C[C@@H]1CN([C@@H](C)CO)C(=O)c2cc(NC(=O)Cc3cn(C)c4ccccc34)ccc2O[C@@H]1CN(C)C(=O)NC1CCCCC1
 : 5[16.7 µM]	27
COCCCNC(=O)[C@@]1(C)c2ccccc2C(=O)N(Cc2ccc(OC(F)(F)F)cc2)[C@H]1c1ccc(CO)cc1
 : -4[16.7 µM]	3
COc1cccc(-c2ccc3c(c2)O[C@@H](CN(C)Cc2cccnc2)[C@H](C)CN([C@H](C)CO)S3(=O)=O)c1
 : 27[16.7 µM]	-2
CCCNC(=O)C[C@H]1CC[C@@H]2[C@H](COc3ccc(NC(=O)CCC)cc3C(=O)N2C)O1
 : 4[16.7 µM]	-7

Reprinted at random: two records from the list, in no set order.
Values run as follows: HIV Env fusion	UUG fidelity
C[C@@H]1CCCCO[C@@H](CN(C)Cc2ccccc2)[C@@H](C)CN([C@@H](C)CO)C(=O)c2cc(NC(=O)Nc3ccc(F)cc3)ccc2O1
 : -28[16.7 µM]	17
Cc1noc(C)c1S(=O)(=O)N(C)C[C@H]1Oc2c(NS(=O)(=O)c3cn(C)cn3)cccc2C(=O)N([C@H](C)CO)C[C@H]1C
 : -19[16.7 µM]	-8

A portion of the library. The share of hits here may be higher or lower than overall.
